# Screens: PubChem, National Center for Advancing Translational Sciences (NCATS)
# A488 autofl: A488 region autofluorescence. 59,000 tested, 0.1% active. max dye equivalency, M. AID 591. compound autofluorescence, A488 spectral region, dye equivalency; stronger effect = higher value; active = above 10 nM dye equivalent; inconclusive = 1 to 10 nM; inactive = 1 nM or less; about half of its hits are not listed in these tables;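 further: highest value over a series up to 38 µM; compound alone in buffer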
#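 Compound autofluorescence was read in 100 mM Tris pH 8.0 after 15 min at room temperature, ex 480 nm/em 540 nm. Intensities were converted to A488 dye-equivalent concentration using an on-plate six-point A488 standard curve.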
# Resorufin fluor: compound fluoresces in the resorufin spectral region; AID 588; Compound fluorescence, resorufin region 547/598 nm, buffer; stronger effect = higher value; max dye-equivalent concentration, M; 59,000 tested, 0.04% active; active = above 10 nM dye equivalent; inconclusive = 1 to 10 nM; inactive = 1 nM or less; a few of its hits are not listed in these tables; further: highest value over a series up to 38 µM
#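 Compounds in 100 mM Tris buffer, pH 8.0, incubated 15 min at room temperature, then read with 547 nm excitation and 598 nm emission filters. Fluorescence was converted to dye-equivalent concentration using an on-plate six-point resorufin standard curve.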
# AID923: qHTS Assay for Allosteric/Competitive Inhibitors of Caspase-1: Spectroscopic Profiling in AFC Spectral Region; compound fluorescence, AFC spectral region (405/520 nm); almost no hit is shown here; Potency, µM (top dose mostly 57.5 µM), inactives show at the highest dose fluorescence increase, hits mostly activators; 75,000 tested, 1.1% active; active means well fitted activation curve with a large enough effect; inconclusive means small, poorly fitted or top-dose-only effect;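 further: potency means the concentration at half of the fitted maximal effect; 0% is about no effect; scaled to a free AFC standard on each plate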
#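 Titrations up to 57 uM read every 20 sec for 3 min (405/520 nm) with 50 nM caspase 1 and 5 uM Ac-WEHD-AFC, pH 7.5 HEPES buffer. Fluorescence-vs-time intercept gave baseline, scaled against on-plate AFC standard.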
# TSHR ag: activates the human thyroid stimulating hormone receptor | P16473 | HEK293-CNG-TSHR cells (CNG channel as cAMP sensor), membrane potential dye, cAMP | Potency, µM (doses to about 57.1 µM), inactives show at the top dose activation, hits mostly activators | 73,000 tested, 0.48% active; active = well fitted activation curve of enough size with the parental cells flat; inconclusive = any curve in the parental cells; inactive = parental cells flat and receptor cells flat or falling; further: potency means the concentration at half of the fitted maximal effect; % of control where 0% means no effect; weak receptor curves with flat parental cells got no call and are not listed
# Target sequence (P16473 whole entry, looked up): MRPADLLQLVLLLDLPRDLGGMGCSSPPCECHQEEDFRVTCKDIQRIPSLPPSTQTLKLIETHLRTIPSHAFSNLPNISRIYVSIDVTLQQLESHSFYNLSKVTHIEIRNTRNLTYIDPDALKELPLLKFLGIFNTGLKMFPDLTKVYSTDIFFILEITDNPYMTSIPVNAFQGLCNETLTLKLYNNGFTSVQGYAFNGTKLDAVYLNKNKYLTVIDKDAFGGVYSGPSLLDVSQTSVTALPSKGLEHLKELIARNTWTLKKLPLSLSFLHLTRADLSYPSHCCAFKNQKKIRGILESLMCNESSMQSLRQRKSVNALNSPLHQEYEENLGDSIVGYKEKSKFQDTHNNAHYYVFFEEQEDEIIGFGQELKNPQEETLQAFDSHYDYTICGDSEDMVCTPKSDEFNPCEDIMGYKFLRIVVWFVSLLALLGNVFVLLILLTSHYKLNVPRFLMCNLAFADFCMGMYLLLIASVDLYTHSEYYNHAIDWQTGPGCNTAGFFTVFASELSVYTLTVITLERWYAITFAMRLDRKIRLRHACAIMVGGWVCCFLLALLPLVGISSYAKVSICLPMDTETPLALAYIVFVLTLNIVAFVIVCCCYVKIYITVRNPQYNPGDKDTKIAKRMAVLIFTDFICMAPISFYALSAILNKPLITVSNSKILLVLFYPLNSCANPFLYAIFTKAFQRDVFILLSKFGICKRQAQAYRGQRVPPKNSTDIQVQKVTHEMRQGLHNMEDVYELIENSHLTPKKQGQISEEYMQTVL
#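 HEK 293 cells stably expressing TSHR and a cAMP-gated CNG channel; parental CNG-only cells as counterscreen. Cells preloaded 60 min with membrane potential dye plus 100 uM RO 20-1724, then compound 30 min; fluorescence read at 590 nm.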
# A647 fluor: A647 region autofluorescence; max dye-equivalent concentration, M; 59,000 tested, under 10 active; Compound fluorescence, A647 channel (570/671 nm), Tris buffer; active means above 1 µM dye equivalent; inconclusive means 0.1 to 1 µM; inactive means 0.1 µM or less;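 further: values scaled relative to a standard on each plate; highest value over a series up to 38 µM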
#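 Tris 100 mM pH 8.0; cpd + A647 stds pin-transferred; 15 min RT; CCD imager, ex 570/em 671. Output = A647-equivalent conc. per cpd conc.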
# * hit, by the source's call; i = inactive; ? = inconclusive; . = not tested or not shown; & = joins results of further samples; [ ] = dose if it differs, or a comment. These rows are one share of the data; rates above refer to the full screens.
No.	structure	TSHR ag	AID923	Resorufin fluor	A488 autofl	A647 fluor
1	O=C(O)C(O)(c1ccc(-c2ccccc2)cc1)c1ccc(-c2ccccc2)cc1	24.5%[11.4 µM]	-1.4%[11.5 µM]	i	i	4.86e-08
2	CCOC(=O)C1=C(N)Oc2cc(C)oc(=O)c2C12C(=O)N1c3c(cccc32)C(C)=CC1(C)C (stereo not drawn)	1.7%	1.6%	i	i	1e-09
3	CCOC(=O)c1c(C)n(CCN2CCN(C)CC2)c2ccc(OC)cc12	7.7%	1.6%	i	i	1.84e-08
4	O=C(NCC(c1cccnc1)N1CCN(c2ccccc2)CC1)Oc1ccccc1 (stereo not drawn)	?	0.3%	i	i	2.49e-08
5	CC12CCCCC1=NC(c1ccc(Br)cc1)N2O (stereo not drawn)	-3.1%[11.4 µM]	0.7%	.	.	.
6	Cc1nc2ccccc2c(=O)n1-c1ccc(F)cc1	-4.6%	-2.2%	.	.	.
7	COc1ccccc1N1CCN(Cc2ccccc2F)CC1	-1.9%	0.7%	.	.	.
8	O=Cc1ccccc1	4.2%	4.3%	.	.	.
9	Oc1cc(Cl)ccc1Cl	?	-2.0%	.	.	.
10	c1ccc2ncccc2c1	3.4%	2.5%	.	.	.
11	c1ccc2c(c1)CCCC2	?	3.2%	.	.	.
12	C[C@@](Br)(C(=O)O)[C@H](Br)C(=O)O	5.3%[11.4 µM]	1.6%[11.5 µM]	i	i	1.05e-08
13	CCN(CC)C(=O)N[C@@H]1C[C@H]2c3cccc4[nH]cc(c34)C[C@@H]2N(C)C1	-13.9%[25.6 µM]	0.5%&-0.1%[25.7 µM]	i	i	1.13e-08&1.46e-08
14	CN(C)c1ccc(N=Nc2ccccc2)cc1	?	-0.8%	.	.	.
15	O=S(=O)(O)/C(=C\c1ccccc1)c1ccccc1 (tested in a mixture with another compound)	12.5%[11.4 µM]	-0.2%[11.5 µM]	i	i	2.25e-08
16	CCCC1=C(C(=O)OCC)C2(C(=O)Nc3ccccc32)C(C#N)=C(N)O1 (stereo not drawn)	-7.7%	-2.7%	.	.	.
17	COc1cc(CN2CCN(C(=O)COc3ccccc3)CC2)cc(OC)c1OC	-1.0%[11.4 µM]	0.0%	.	.	.
18	COc1ccc(CCn2c(O)c(C=NCCCO)c(=O)[nH]c2=O)cc1OC	-9.2%	-1.8%	i	i	1e-09
19	CCOC(=O)C1=C(C)OC(N)=C(C(=O)OCC)[C@@]12C(=O)N(CC(N)=O)c1ccccc12	.	.	i	i	4.51e-08
20	O=C1C2CCCN2C(c2ccncc2)N1c1ccc(Cl)c(Cl)c1 (stereo not drawn)	13.5%	-2.0%	i	i	5.2e-09

# In the list so far, 4 have an aryl methoxy group.
No.	structure	TSHR ag	AID923	Resorufin fluor	A488 autofl	A647 fluor
3	CCOC(=O)c1c(C)n(CCN2CCN(C)CC2)c2ccc(OC)cc12	7.7%	1.6%	i	i	1.84e-08
7	COc1ccccc1N1CCN(Cc2ccccc2F)CC1	-1.9%	0.7%	.	.	.
17	COc1cc(CN2CCN(C(=O)COc3ccccc3)CC2)cc(OC)c1OC	-1.0%[11.4 µM]	0.0%	.	.	.
18	COc1ccc(CCn2c(O)c(C=NCCCO)c(=O)[nH]c2=O)cc1OC	-9.2%	-1.8%	i	i	1e-09

# Next part:
No.	structure	TSHR ag	AID923	Resorufin fluor	A488 autofl	A647 fluor
21	c1cc(OCC2CO2)cc(OCC2CO2)c1 (stereo not drawn)	?	-5.8%	.	.	.
22	CC12CN3CC(C)(CN(C1)C3c1cccs1)C2O (stereo not drawn)	-12.3%	-1.3%	i	i	1.75e-08
23	CCN(CCCl)Cc1ccccc1Br	?	-1.2%	i	i	5.63e-08
24	CCOC(=O)N1CCC(NC(=O)CCc2nc(C3=CCN(C)CC3)no2)CC1	.	0.7%	i	i	5.6e-09
25	O=c1[nH]c(N2CCN(Cc3ccc4c(c3)OCO4)CC2)nc2c1CCC2	27.0%	-1.4%	i	i	1e-09
26	CC(C)=C[C@H]1[C@@H](C(=O)OCc2cc3c(cc2Cl)OCO3)C1(C)C	3.0%[11.4 µM]	0.3%[11.5 µM]	i	i	4.7e-09
27	CCN(CC)CCCNC(=O)c1c(O)c2ccccc2n(Cc2ccccc2)c1=O	.	.	i	i	1.85e-08
28	C[N+](C)(C)CC#CCOC(=O)Nc1cccc(Cl)c1	?	0.1%	i	i	1.43e-08
29	NCC(CC(=O)O)c1ccc(Cl)cc1 (stereo not drawn)	-0.4%	-0.8%&3.8%	i	i	2.24e-08&1e-09
30	CC(=O)N1CN2CN(C(C)=O)CC(C(=O)c3ccc(Br)cc3)(C2)C1	0.0%	4.2%	i	i	1e-09
31	Clc1cccc(Cl)c1	-0.1%	-3.7%	.	.	.
32	COc1ccc(OC)c(C2=NOC(C(=O)N3CCC4(CC3)OCCO4)C2)c1 (stereo not drawn)	3.0%	2.6%	i	i	6.3e-09
33	C[C@@H](Cc1ccc2c(c1)OC(C(=O)O)(C(=O)O)O2)NC[C@H](O)c1cccc(Cl)c1	.	2.1%	i	i	8.9e-09
34	COCCOC(=O)c1c(N)n(Cc2ccco2)c2nc3ccccc3nc12	.	.	i	?	1e-09
35	Cc1nn(Cc2ccccc2Cl)c(Cl)c1C(=O)OCC(=O)NCc1ccco1	?	0.9%	i	i	1e-09
36	[N-]=[N+]=NCC(=O)c1c[nH]c(=O)[nH]c1=O	0.4%[11.4 µM]	0.2%[11.5 µM]	i	i	3.12e-08
37	CN1CC=C2C(C#N)=C(N)C(C#N)(C#N)C(c3ccncc3)C2C1 (stereo not drawn)	.	.	i	?	1e-09
38	O=C(C1CCCO1)N1CCC2(CC1)OCCO2 (stereo not drawn)	1.1%	0.6%	i	i	1e-09
39	COc1cc(C)c(CN2CCN(c3ccccc3)CC2)cc1C	14.1%	1.5%	.	.	.
40	COCCOC(=O)C1=C(N)OC(C)=C(C(=O)OC)C12C(=O)Nc1ccccc12 (stereo not drawn)	1.8%	-0.8%	.	.	.

# (more compounds)
No.	structure	TSHR ag	AID923	Resorufin fluor	A488 autofl	A647 fluor
41	Cn1cc(C(=O)c2ccccc2)c2ccccc21	12.6%	-0.6%	.	.	.
42	CCOC(=O)C1C(=O)N(C)C2(C)CC1c1cc(OC)ccc1O2 (stereo not drawn)	-1.2%[11.4 µM]	-2.6%	i	i	3.73e-08
43	C=CC(C)=O	?	0.7%	.	.	.
44	O=C(O)C(=O)Cc1ccc2c(c1)OCO2	1.8%[11.4 µM]	2.3%[11.5 µM]	i	i	2.11e-08
45	N#CC1=C(N)Oc2c(c(=O)oc3ccccc23)C1c1ccc(OC(=O)N2CCOCC2)cc1 (stereo not drawn)	.	-0.3%	i	i	3.49e-08
46	CC(N=Cc1c(O)[nH]c(=O)[nH]c1=O)c1ccccc1 (stereo not drawn)	-4.0%[11.4 µM]	-1.1%	.	.	.
47	CCC(=NCCN1CCCCC1)c1c(O)n(C)c(=O)n(C)c1=O	.	.	i	i	1e-09
48	N[C@H](CP(=O)(O)O)C(=O)O	?	-1.7%	i	i	3.51e-08
49	CCOC(=O)C1CCN(Cc2c(F)cccc2Cl)CC1	?	0.0%	i	i	1.6e-09
50	CC1(C)N(O)C(c2ccc(C(=O)O)cc2)=[N+]([O-])C1(C)C	-1.3%	-0.3%	.	.	.
51	O=[N+]([O-])c1cc(O)c(O)c([N+](=O)[O-])c1	15.4%&13.2%	-6.7%	i	i	4.18e-08
52	CCCCCCn1c(O)c(C=NCCN2CCCCC2)c(=O)[nH]c1=O	.	.	i	i	1.88e-08
53	CN1CCN(c2ccc3ccccc3n2)CC1	8.6%&13.8%	-0.1%&-2.1%	i	i	4.96e-08
54	O=C(OCCCCN1C(=O)c2ccccc2C1=O)c1ccc(Br)o1	?	0.3%	i	i	2.6e-09
55	O=C(O)/C=C(\CC(=O)O)C(=O)O	?	3.0%[11.5 µM]	i	i	3.3e-08
56	CC(=O)N1C[C@@H]2C[C@H](C1)c1cccc(=O)n1C2	2.5%	.	i	i	1.2e-09
57	COc1ccccc1CN1CCN(C(=O)COc2ccccc2)CC1	-1.1%	0.9%	i	i	1e-09
58	COc1ccccc1N1CCNCC1	2.6%	-0.4%&-2.2%	i	i	5.6e-09
59	COc1cccc(N2C(=O)NC(=O)C3(Cc4cc(C)ccc4N(C)C3)C2=O)c1 (stereo not drawn)	15.4%	2.1%	i	i	6.4e-09
60	CC(C)[C@H](CO)Nc1nc(Nc2cccc(Cl)c2)c2ncn(C(C)C)c2n1	19.3%	-0.9%	i	i	3.61e-08

# Going on with the list:
No.	structure	TSHR ag	AID923	Resorufin fluor	A488 autofl	A647 fluor
61	COc1ccc(Cc2nccc3cc(OC)c(OC)cc23)cc1OC	?	-2.2%	i	i	1e-09&1e-09&2.3e-09&4.47e-08
62	CNC(=O)O/N=C/C(C)(C)SC	-2.6%	1.3%	.	.	.
63	CC(C)N(CCC(C(N)=O)(c1ccccc1)c1ccccn1)C(C)C (stereo not drawn)	.	1.5%	i	i	4.65e-08
64	COc1ccc2c(c1)C13CCCC[C@@H]1C(C2)N(C)CC3 (stereo partly drawn)	-2.2%[25.6 µM]	-1.0%[25.7 µM]	i	i	2.7e-08
65	Nc1ccc(Cl)c(Cl)c1	?	-0.6%	.	.	.
66	COc1ccccc1N=C1SCCCN1C	?	2.5%	i	i	3.7e-09
67	CCCCn1c(O)c(C(CC)=NCCN2CCCCC2)c(=O)[nH]c1=O	2.3%	1.4%	i	i	1e-09
68	O=c1[nH]c(=O)n(Cc2ccco2)c(O)c1C=NCc1ccco1	-0.4%	1.4%	i	i	3.01e-08
69	CCC(C(=O)N1CCC2(CC1)OCCO2)c1ccccc1 (stereo not drawn)	.	0.1%	i	i	1e-09
70	[N-]=[N+]=CC(=O)OC[C@H](N)C(=O)O	.	.	i	i	5.8e-09
71	CC(C)(C)c1ccc(O)c(C[N+](C)(C)C)c1	-1.0%[11.4 µM]	-0.2%[11.5 µM]	i	i	1e-09
72	CC(=O)C1=C(C)OC(N)=C(C(=O)OC(C)C)C12C(=O)Nc1ccccc12 (stereo not drawn)	-0.8%	-2.6%	i	i	1e-09
73	CCCN(CC#CCO)CCC	.	.	i	i	5.1e-09
74	Nc1ccccc1C(=O)OC1CSC1	?	0.6%	.	.	.
75	Cc1nc2ncnn2c(C)c1CCC(=O)N1CCC2(CC1)OCCO2	4.5%	1.3%	i	i	1.6e-09
76	Cn1nc(-c2ccc(OCC(=O)N3CCN(Cc4ccccc4)CC3)cc2)c2ccccc2c1=O	?	0.6%	i	i	5e-09
77	COc1ccc2[nH]c(C)c(CCN3CCC(=O)C(C)C3C)c2c1 (stereo not drawn)	?	-0.7%	.	.	.
78	O=C1N(CN2CCOCC2)c2ccccc2C1(O)c1c[nH]c2ccccc12 (stereo not drawn)	-8.0%	-1.2%	i	i	1.56e-08
79	Cc1ccc2c(c1)C1CN(C)CCC1N2C(=O)Cn1nnc(-c2ccccc2F)n1 (stereo not drawn)	4.9%	-1.0%	.	.	.
80	CP(=O)(O)CCCN	?	1.2%&0.7%&-1.6%	i	i	3.81e-08&2.28e-08

# Later entries
No.	structure	TSHR ag	AID923	Resorufin fluor	A488 autofl	A647 fluor
81	CN(C)CCN=Cc1c(O)n(-c2cccc(C(F)(F)F)c2)c(=O)[nH]c1=O	-0.2%	0.7%	i	i	1e-09
82	Cc1cc(N2C(=O)C3CCCN3C2c2cccc(Cl)c2)no1 (stereo not drawn)	4.8%	-1.1%	i	i	3.6e-09
83	CC(C)(O)C(=O)Nc1ccc([N+](=O)[O-])c(C(F)(F)F)c1	-4.9%	0.9%	.	.	.
84	CCCCc1nc(N2CCNCC2)c(C#N)c2c1CSC(C)(C)C2	.	.	i	i	3.58e-08
85	Cc1ccc(N)cc1[N+](=O)[O-]	?	4.0%	.	.	.
86	CCCCn1c(O)c(C(C)=Nc2ccc(C(=O)O)cc2)c(=O)[nH]c1=O	-5.6%[11.4 µM]	-0.9%	i	i	9e-09
